From PubChem BioAssay
KCNQ2 block = KCNQ2 potassium channel inhibitors, primary screen, cell-based, CHO-K1, FluxOR thallium flux, B-score (AID 2156) | 310,000 compounds, 1.1% hits | 20 min; hits give low values; only compounds with negative scores are shown here; some inactives read as strong as hits | O88943 | B-score at 10 µM;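 active means fluorescence ratio B-score at most minus 3 library SDs, with starting brightness B-score within 2 library SDs, cut at about -5.5 in these data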
Target sequence (O88943 whole entry, looked up): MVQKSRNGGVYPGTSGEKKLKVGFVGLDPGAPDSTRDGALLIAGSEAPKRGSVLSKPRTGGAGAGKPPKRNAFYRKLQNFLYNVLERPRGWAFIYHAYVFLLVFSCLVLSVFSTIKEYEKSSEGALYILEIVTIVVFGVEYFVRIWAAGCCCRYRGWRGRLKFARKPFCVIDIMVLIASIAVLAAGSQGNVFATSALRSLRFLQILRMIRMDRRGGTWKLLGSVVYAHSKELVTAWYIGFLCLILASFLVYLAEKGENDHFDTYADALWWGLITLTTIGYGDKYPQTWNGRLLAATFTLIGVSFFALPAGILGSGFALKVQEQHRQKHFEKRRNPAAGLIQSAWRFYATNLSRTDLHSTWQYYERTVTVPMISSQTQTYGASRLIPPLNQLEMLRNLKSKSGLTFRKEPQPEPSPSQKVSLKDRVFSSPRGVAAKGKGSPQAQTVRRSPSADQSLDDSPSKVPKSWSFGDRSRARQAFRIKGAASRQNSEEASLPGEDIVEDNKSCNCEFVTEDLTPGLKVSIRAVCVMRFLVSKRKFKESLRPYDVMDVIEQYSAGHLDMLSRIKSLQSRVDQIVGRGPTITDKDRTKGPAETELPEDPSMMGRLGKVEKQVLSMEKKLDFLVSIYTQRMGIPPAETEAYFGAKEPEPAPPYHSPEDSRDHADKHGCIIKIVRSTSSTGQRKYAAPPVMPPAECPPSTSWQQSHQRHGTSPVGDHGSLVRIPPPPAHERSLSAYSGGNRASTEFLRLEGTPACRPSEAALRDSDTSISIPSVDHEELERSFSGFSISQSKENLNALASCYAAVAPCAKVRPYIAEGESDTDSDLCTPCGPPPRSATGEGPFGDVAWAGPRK
KCNQ2 block baseline = recorded beside KCNQ2 block, whose call it bears; B-score; measured here: initial fluorescence intensity artifact check;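 brightness before thallium and not channel activity; 0 = typical well and far values either way flag optical interference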
The depositor's hits bear a star; i = inactive.

compound	KCNQ2 block	KCNQ2 block baseline
Cc1ccc2c(c1)N(CC(=O)c1cccc(Cl)c1)C(=O)C(C)O2 (configuration not stated)	i	0.29
COc1ccc(-c2c(-c3ccc(O)cc3O)n[nH]c2C)cc1OC	i	1
CC(OC(=O)c1ccc2ccccc2n1)C(=O)c1ccccc1 (configuration not stated)	i	1.6
Cn1c(=O)n(CC(=O)N2CCOCC2)c2ccccc21	i	2.6
Cc1ccc(Nc2cc(C)nc(N3CCOCC3)n2)c(C)c1	i	0.91
CCC1(C)Cc2ccccc2-c2nc(NCCO)[nH]c(=O)c21 (configuration not stated)	i	0.62
COc1cccc(CNC(=O)C2CCN(S(=O)(=O)c3cccc4nonc34)CC2)c1	i	0.12
CCCNc1[nH]c(=O)n(C)c(=O)c1N=O	i	0.43
CC1CC(C)CN(CC(O)COC2CC(C)CC(C)(C)C2)C1 (configuration not stated)	i	-0.79
COc1cccc(-c2cc(C(=O)NCc3ccco3)no2)c1	i	5.2
O=C(CO)N/N=C/c1c2ccccc2cc2ccccc12	i	-0.67
CC(Sc1nc(-c2ccc(F)cc2)cs1)C(=O)N1c2ccccc2CC1C (configuration not stated)	i	-0.45
CC1=C(OC(=O)c2ccccc2)C(C)(C)C(c2ccccc2)OC1=O (configuration not stated)	i	0.07
COc1cccc(NC(=O)CSc2nc3c(sc4ccccc43)c(=O)n2CCCN2CCCC2)c1	-6.7*	-2.6*
CC1(C)CC(=O)C2=C(C1)Nc1ccccc1N(C(=O)C1CC1)C2c1ccco1 (configuration not stated)	i	0.31
O=C(Nc1ccc(F)cc1)N1CCN2C(=O)c3ccccc3C12c1ccccc1 (configuration not stated)	i	0.97
Cc1ccc(OC(=O)c2cccc(C(=O)Oc3ccc(C)cn3)n2)nc1	i	0.25
Cc1nnc(C)n1/N=C/c1ccccn1	i	-0.63
CCOCCn1cnc2sc(C(=O)Nc3nc(C)c(C(=O)OCC)s3)c(C)c2c1=O	i	1.5
COc1ccc2[nH]c(=O)c(CN(Cc3cccs3)S(=O)(=O)c3c(C)ccc4nsnc34)cc2c1	i	1.4

Copied from the list:
O=C(Nc1ccc(F)cc1)N1CCN2C(=O)c3ccccc3C12c1ccccc1 (configuration not stated) in KCNQ2 block baseline is listed with 0.97
CC1(C)CC(=O)C2=C(C1)Nc1ccccc1N(C(=O)C1CC1)C2c1ccco1 (configuration not stated) in KCNQ2 block baseline is listed with 0.31
COc1ccc(-c2c(-c3ccc(O)cc3O)n[nH]c2C)cc1OC in KCNQ2 block baseline is listed with 1
COc1cccc(CNC(=O)C2CCN(S(=O)(=O)c3cccc4nonc34)CC2)c1 in KCNQ2 block baseline is listed with 0.12
COc1cccc(NC(=O)CSc2nc3c(sc4ccccc43)c(=O)n2CCCN2CCCC2)c1 in KCNQ2 block is listed with -6.7*
Cc1ccc(OC(=O)c2cccc(C(=O)Oc3ccc(C)cn3)n2)nc1 in KCNQ2 block baseline is listed with 0.25

Further records follow.
compound	KCNQ2 block	KCNQ2 block baseline
O=C(Nc1cccc(C(F)(F)F)c1)c1cccnc1N1CCCC1	i	1.1
CCN(Cc1ccccc1)C(=O)c1ccc(NC(=O)c2ccc(OC)cc2)cc1	i	-0.85
Cc1c(NC(=O)c2ccc([N+](=O)[O-])o2)cccc1-c1nc2ncccc2o1	i	-1.8
COc1cc2c(cc1OC)CN(C(=O)CSc1nnc3scc(-c4ccccc4)n13)CC2	i	-0.97
CCCCCN(C(=O)CCC(=O)OCCOc1ccc(OCC)cc1)c1c(N)n(CCCC)c(=O)[nH]c1=O	i	0.05
Cc1ccc(C=Nc2ccc(N(C)C)cc2)o1	i	0.98
COc1ccccc1S(=O)(=O)Nc1cc(C)nn1-c1ccc(C)cc1	i	-2
N/C(=N\O)c1ccc(Cl)cc1Cl	i	-0.21
O=C(N/N=C\c1ccc(F)cc1)c1cc(OCC(F)(F)F)ccc1OCC(F)(F)F	i	2.7
CCOc1ccc(N(CC(=O)NC(C)(C)C)S(=O)(=O)c2c(C)noc2C)cc1	i	-0.72
O=C(CCSc1ccccc1)NCCN1CCOCC1	i	0.41
CCC(NC(=O)c1ccccc1Br)c1ccccc1 (configuration not stated)	i	-0.11
CC(C)CC(NC(=O)C1CCC(C)CC1)C(=O)NCCN1CCOCC1 (configuration not stated)	i	-0.08
CCOC(=O)C1CCN(C(=O)CCCn2nc(C)c3c(C)n(-c4ccc(C)cc4)nc3c2=O)CC1	i	-0.01
CCOC(=O)C1CCN(c2cc(=O)n(-c3ccc(OC)cc3)c(=O)[nH]2)CC1	i	-0.38
CN(C)S(=O)(=O)c1cccc(C(=O)N(Cc2ccc(F)cc2)Cc2ccco2)c1	i	0.44
NC(=O)COC(=O)c1ccc(Oc2ccccc2)cc1	i	2.2
CCOC(=O)c1cc(CC)sc1NC(=O)C(c1ccccc1)c1ccccc1	i	-1.1
COc1ccc(/C(N)=N/OC(=O)C2CCC(=O)N2S(=O)(=O)c2ccc(C)cc2)cc1 (configuration not stated)	i	0.03
CCN=C1S/C(=C\c2cc(OCC)c(O)cc2Br)C(=O)N1CC	i	-2.8
CCCOCC(O)CC(CC)C(=O)NNC(=S)Nc1ccccc1 (configuration not stated)	i	-0.44
CC1CC(C)(C)NCc2ccccc21 (configuration not stated)	i	-0.3
COc1ccc(OCc2cc(C(=O)NCCN3CCCc4ccccc43)no2)c(Cl)c1	i	-1
Cc1cccc(N2C(=O)C3C4CC(C(Br)C4Br)C3C2=O)n1 (configuration not stated)	i	0.62
CN(C)/N=C/C=C1\CCC/C(=C/c2cccs2)C1=O	i	-0.86
CCN(C(=O)COC(=O)c1cc(S(=O)(=O)Nc2c(C)n(C)n(-c3ccccc3)c2=O)ccc1Cl)C1CCCCC1	i	-0.02
CC(NCC(O)COCc1cccs1)C1CC2CCC1C2 (configuration not stated)	i	4.3
O=C(CSc1nc(-c2ccco2)cc(C(F)(F)F)n1)Nc1ccc(C(=O)N2CCCCC2)cc1	i	0.5
O=C(NNC(=O)C1C2CCCCC21)c1coc(=O)c(Br)c1 (configuration not stated)	i	0.72
CS(=O)(=O)c1nc(-c2ccccc2)cc(-c2ccccc2)c1C#N	i	0.48
Cc1cc(NC(=O)c2ccc3c(c2)C(=O)N(CCC(C)C)C3=O)no1	i	-1.4
NCCCn1c(C(=O)c2ccc(Cl)cc2)c2ccc([N+](=O)[O-])cc2[n+]1[O-]	i	0.39
CN(C)C(CNC(=O)CNC(=O)Cc1cccc2ccccc12)c1ccccc1 (configuration not stated)	i	-0.16
O=C(c1ccccc1)N1CCN(C(=O)c2ccc(OC(F)(F)F)cc2)CC1	i	-1.7
O=S(=O)([N-]c1nc2ccccc2nc1-n1cc[n+](Cc2ccccc2)c1)c1ccccc1	i	-0.69
COc1cc(CNc2ncc(-c3ccc(Cl)cc3)n2C)cc(OC)c1OC	i	0.59
O=C(Nc1ccon1)C(Sc1ccccc1)c1ccccc1 (configuration not stated)	i	-1.2
C#CCOCCOCCOCCNc1nc(N2CCN(C(=O)C(Cc3ccc(O)cc3)n3cc(C(N)CC(C)C)nn3)CC2)nc(N2CCN(C(=O)C(Cc3ccc(O)cc3)n3cc(C(N)C(C)CC)nn3)CC2)n1 (configuration not stated)	i	-2
COCCCNC(=S)NNC(=O)Cn1nc(C)c(Br)c1C	i	3
Cc1cccc(C(=O)NNC(=O)c2c(-c3ccccc3Cl)noc2C)c1O	i	1.1
O=C(NCC(=O)N(Cc1ccco1)C(C(=O)NC1CCCCC1)c1cccnc1)c1cccs1 (configuration not stated)	i	-0.68
ONC=Nc1cccc2nonc12	i	0.68
O=C(N/C(=C/c1ccccc1F)C(=O)N1CCCCC1)c1ccccc1	i	0.12
CCCN(N=Nc1cccc([N+](=O)[O-])c1)c1cccc([N+](=O)[O-])c1	i	-0.9
O=C(c1cccc(C(F)(F)F)c1)C1CCCN(C(=O)C2CCOCC2)C1 (configuration not stated)	i	-0.06
Brc1ccccc1OCCCCn1cnc2ccccc21	i	2.1
O=C(O)CSc1ncnc2nc[nH]c12	i	2
COc1cc(OC)c(NC(=O)C2CCCN2C(=O)OCc2ccccc2)cc1Cl (configuration not stated)	i	-0.53
CSc1ccc(/C=N/N2CCN(C)CC2)cc1	i	-0.68
CCCN(CCC)CCCNC(=S)Nc1ccc2nc(N3CCN(C)CC3)cc(C)c2c1	i	1.2
CN1CCN(NC(=O)c2ccc(Cl)c(S(=O)(=O)Nc3ccc(Cl)cc3)c2)CC1	i	0.62
O=C(NN1CCOCC1)c1cc(-c2ccccc2)nc2ccccc12	i	-1.1
CC1(C)COC(/C=C/c2ccc([N+](=O)[O-])cc2)=N1	i	-4.2
COc1ccc(-n2cnc(N)c2C(=O)c2cccc([N+](=O)[O-])c2)cc1	i	0.49
COc1ccc(C(=O)Nc2ccc(C3=NNC(=O)CC3C)cc2NC(=O)c2ccc(OC)cc2)cc1 (configuration not stated)	i	-0.13
O=C(Nc1cccc2c1CCCC2)c1ccccc1Br	i	0.17
COCn1c(-c2ccc(OC)cc2)nc2ccccc21	i	-0.41
CN(C#N)c1nc(Cl)nc(Nc2cccc(Cl)c2)n1	i	-0.59
CCC(C)(C)NC(=O)C(c1ccncc1)N(Cc1ccc(C)cc1)C(=O)c1csnn1 (configuration not stated)	i	-1.8
Cc1nc2ccc(NC(=O)CCS(=O)(=O)c3ccccc3)cc2s1	i	-0.07

6 compounds out of the list, sorted by SMILES length, smallest number first:
compound	KCNQ2 block	KCNQ2 block baseline
O=C(Nc1cccc2c1CCCC2)c1ccccc1Br	i	0.17
CCC1(C)Cc2ccccc2-c2nc(NCCO)[nH]c(=O)c21 (configuration not stated)	i	0.62
Cc1cc(NC(=O)c2ccc3c(c2)C(=O)N(CCC(C)C)C3=O)no1	i	-1.4
CCOCCn1cnc2sc(C(=O)Nc3nc(C)c(C(=O)OCC)s3)c(C)c2c1=O	i	1.5
COc1ccc(/C(N)=N/OC(=O)C2CCC(=O)N2S(=O)(=O)c2ccc(C)cc2)cc1 (configuration not stated)	i	0.03
COc1ccc(C(=O)Nc2ccc(C3=NNC(=O)CC3C)cc2NC(=O)c2ccc(OC)cc2)cc1 (configuration not stated)	i	-0.13

The results go on:
compound	KCNQ2 block	KCNQ2 block baseline
COCCn1c(CN2CCN(c3ccccc3)CC2)nc2c1c(=O)n(C)c(=O)n2C	i	1.1
COc1ccc(S(=O)(=O)N2CCC(C(=O)NCc3ccncc3)CC2)cc1C	i	-0.1
CCOc1cc(C2C(C(C)=O)=C(C)Nc3ncnn32)ccc1O (configuration not stated)	i	0.65
Cc1cccc(C)c1NC(=O)NC1(C(=O)NCc2ccncc2)CCCCC1	i	3
O=C(Cn1c(=O)n(CC(=O)NCc2ccccc2)c2ccccc21)NCc1ccccc1	i	0.33
NNC(=O)Nc1cccc(C(F)(F)F)c1	i	-0.33
Cc1cccc2[nH]c3c(N4CCN(C(=O)c5ccco5)CC4)ncnc3c12	i	-0.06
Clc1ccccc1-c1nc2ccccc2c2nncn12	i	0.07
C/C(=N\NC(=S)NCc1ccccc1)c1ccc(Cl)s1	i	-0.24
COc1ccc(C(=O)C(OC(=O)CNC(=O)c2ccco2)c2ccccc2)cc1 (configuration not stated)	i	-3.1
N#Cc1c(NC(=O)CSc2nnc(-c3ccco3)n2-c2ccccc2)sc2c1CCC2	i	-0.07
O=C(N/N=C/c1ccc[nH]1)c1ccc(COc2cccc3cccnc23)cc1	i	-3
Cc1nc2ccccc2c(=O)[nH]1	i	-0.3
Cc1nnc2c(Oc3ccccc3)nc3ccccc3n12	i	0.67
CCOC(=O)C(NC(C)=O)(Nc1ccc(S(=O)(=O)Nc2cc(C)nc(C)n2)cc1)C(F)(F)F (configuration not stated)	i	-0.27
COc1ccc(NC(=O)C2OC3OC(C)(C)OC3C3OC(C)(C)OC23)cc1 (configuration not stated)	i	-3.8
NC(=O)c1nsc(C(=O)N(CC(=O)NCc2ccc3c(c2)OCO3)C2CCCCC2)c1N	i	-1.5
Cc1cc(C)n2c3c(c(C#N)c2n1)CC(C)(C)OC3	i	3.9
Cc1c(NC(=O)/C(C#N)=C/c2ccc(-c3ccc(Cl)cc3)o2)c(=O)n(-c2ccccc2)n1C	i	0.6
COCCNC(=O)CSc1nnc(-c2ccccc2F)n1Cc1ccccc1	i	0.26
O=c1oc2ccccc2c(O)c1Sc1ccc(Cl)cc1	i	-2.7
Cc1ccc(OCc2nnc(SCC(=O)N3c4ccccc4Sc4ccc(Cl)cc43)o2)cc1	i	0.66
COc1cccc(C2C(C(=O)/C=C/c3ccco3)=C(O)C(=O)N2CCN2CCOCC2)c1 (configuration not stated)	i	1.1
COc1ccc(NS(=O)(=O)c2ccc(OC)c(OC)c2)cc1OC	i	-0.17
O=C(CSc1nc(-c2ccco2)cc(C(F)(F)F)n1)Nc1ccc2c(c1)OCO2	i	-1.9
Clc1ccccc1Nc1ncnc2c1nnn2Cc1ccccc1	i	-1.2
C=CCc1ccccc1OCC(O)CN1C(=O)c2ccccc2C1=O (configuration not stated)	-12*	-0.61*
CC(CN1CCC(n2nccc2NC(=O)C2CCCC2)CC1)c1ccccc1 (configuration not stated)	i	0.15
O=C(OCC(=O)N1CCN(C(=O)COC(=O)c2ccncc2)CC1)c1ccncc1	i	1.9
Cc1cc(C)c2c(n1)sc1c(=O)n(Cc3ccccc3Cl)nnc12	i	0.04
COC(=O)C1CN(C(=O)C(C)Oc2cc(C)ccc2C(C)C)c2ccccc2O1 (configuration not stated)	i	2.4
CC(O)(CS(=O)(=O)Cc1ccccc1)c1ccc(Cl)cc1 (configuration not stated)	i	-0.02
CCN(CC(=O)Nc1ccc(NC(C)=O)cc1)C(=O)CCN1C(=O)c2cccc([N+](=O)[O-])c2C1=O	i	-1.7
Cc1noc(C)c1-c1nc(CSc2ccccc2)no1	i	-0.13

This is a subset; the hit share may differ from the screen's.
